Assay outcomes deposited in PubChem BioAssay by National Center for Advancing Translational Sciences (NCATS).
VACV Venus inh – vaccinia inhibition (Venus reporter); AID 720580; Vaccinia virus Venus reporter expression, fluorescence; hit rate 0.46% among 330,000; Potency, µM (series often up to 36.5 µM), for inactives: at the top dose activity change, negative = inhibition, hits mostly inhibitors; active means well fitted inhibition curve with a large enough effect; inconclusive means small, poorly fitted or top-dose-only effect; inactive means no such curve, though single readings can be large or run the other way; tested in A549 cells; note: nearly all actives have a fitted effect of over 30% in size; inactives centre near -10
Vaccinia mCherry – inhibitors of vaccinia virus infection (mCherry reporter signal). Vaccinia virus mCherry reporter infection, fluorescence; about a quarter of the inactives have no number. hit rate 0.63% among 310,000. AID 720579. Potency, µM (top dose mostly 36.5 µM), for the others: top-dose activity change, negative = inhibition, most hits filed as inhibitors; active = well fitted inhibition curve with a large enough effect; inconclusive = small, poorly fitted or top-dose-only effect; inactive = no such curve, though single readings can be large or run the other way; tested in A549 cells; note: nearly all actives have a fitted effect of over 35% in size; inactives centre near -10
An asterisk follows results filed as active; i = inactive; ? = inconclusive; . = not tested or not shown; & = joins results of further samples; [ ] = another dose, or the depositor's remark. % is set by controls: 0 for no effect and ±100 for the full control effect; potency is the fitted concentration of half-maximal effect.

canonical_smiles,VACV Venus inh,Vaccinia mCherry
COC(=O)C1=C(c2cccc(OC)c2OC)C[C@@H]2CC[C@H]1N2C(=O)NC1CC1,-8%,i
Cc1cc(C)n2nc(SCC(=O)NC(=O)c3ccccc3Cl)nc2n1,-13%,i
O=C(Nc1ccc(Oc2ccccc2)cc1)c1csc([C@@H]2C[C@H](O)[C@@H](CO)O2)n1,-20%,9%
COc1cccc(C(=O)CC2(O)C(=O)Nc3ccc(Cl)cc32)c1 (stereo not given),-5%,2%
CCOc1ccccc1N(CC(=O)N1CCCC1)S(C)(=O)=O,-8%,i
C/C(=N\NC(=O)C(=O)Nc1c(C)n(C)n(-c2ccccc2)c1=O)c1ccc(Cl)s1,?,-26%
O=C1c2ccccc2C(=O)c2c1ccc(O)c2O,3%&-12%,-15%&-14%
CCc1ccccc1N(CC(=O)NCC1CCCO1)C(=O)CCC(=O)Nc1nccs1 (stereo not given),-9%,-14%
CCOC(=O)c1cc2c(s1)-c1c(C)cccc1OC2,-7%,i
O=C1c2cccc3cccc(c23)C(=O)N1OS(=O)(=O)c1ccccc1,-19%,.
COc1ccc(CN(CCC#N)CCC2(c3ccccc3)CC(C)N(C)CC2C)cc1OC (stereo not given),-7%[7.34 µM],-4%[7.34 µM]
CN1CCN(c2nc(-c3ccccc3)ncc2S(C)(=O)=O)CC1,-27%,-23%
Cc1cc(Oc2ccc(-c3ccccc3)cc2)n2ncnc2n1,-7%,-7%
Cc1cc(C)cc(NC(=O)C2C3C=CC(O3)C2C(=O)O)c1 (stereo not given),-3%,-22%
CCOc1ccc(-c2cn3c(n2)sc2cc(C(=O)NCCc4ccc(OC)cc4OC)ccc23)cc1,-12%,-11%
COc1ccc(S(=O)(=O)N2CCOCC2)cc1NC(=O)CCCOc1ccc(Cl)cc1C,-16%,-30%
COC(=O)c1ccc(CCc2cc(O)ccc2O)cc1,-4%,?
COc1ccc(C(=O)NC(=S)N2C[C@H]3C[C@H](C2)c2cccc(=O)n2C3)cc1,3%,9%
CCOc1c2ccc(C(=O)NCC34CC5CC(CC(C5)C3)C4)cc2nn1CC,-29%,-3%
O=C(c1ccc(Cl)c(Cl)c1)N1CCC(=O)N([C@H](COCc2ccc(Cl)cc2)Cc2ccccc2)CC1,-12%,14%
COc1ccc(CNC(=O)[C@H](C)NC(=O)[C@@H]2Cc3ccccc3CN2)cc1,-9%,-25%
Cc1cc2nc(-c3ccc(NC(=O)C(C)C)cc3)oc2cc1C,0%,-11%
COC1=CC(=O)OC(c2ccc(OC)cc2)C1 (stereo not given),-23%,-4%
CCOC(=O)C1CCCN(Cc2nc(N)nc(Nc3ccc(Cl)cc3)n2)C1 (stereo not given),-23%,-21%
COc1cccc(C(=O)/C=C/Nc2ccc(S(=O)(=O)Nc3cccc(C(C)=O)c3)cc2)c1,?,.
c1ccc(C2[C@H]3CN(CC4CCCCC4)[C@H](c4ccccc4)C34CC2(c2ccccc2)C4)cc1 (stereo not given in full),-17%,-10%
C/C(=N/NC(=O)CSc1nc2ccccc2n1C)c1ccncc1,-10%,i
COc1c(OC)c2[nH]c(=O)cc3c4ccccc4n(c1=O)c23,5%,35%[activator]
Cc1nn2c(N)c(-c3ccccc3)cnc2c1-c1ccc(Cl)cc1,-27%,-13%
Cn1c(-c2ccccc2)c(C(=O)CC#N)c2ccccc21,-13%,i
Fc1ccc(N2C(=S)SC(=Nc3ccccc3)C2=Nc2ccccc2)cc1,-13%,-18%
CCN1C(=O)CC(C(=O)Nc2ccc(F)cc2)SC1=Nc1cccc(OC)c1 (stereo not given),-29%,-4%
COC(=O)c1cc(S(=O)(=O)NCC2CCN(Cc3ccc(F)cc3)CC2)c[nH]1,-12%&-6%,-24%&-15%
CCOc1ccc(NS(=O)(=O)c2ccc3[nH]c(=O)cc(C(=O)O)c3c2)cc1,4%,i
CC(=O)c1cccc(NC(=O)Nc2ccc3c(c2)N(C)C(=O)CS3)c1,-21%,-25%
Cc1ccc(SCc2cc(=O)n3[nH]cnc3n2)cc1,-9%,-5%
Nc1c(-c2ccccc2)c(CSc2nc3ccccc3[nH]2)nn1-c1ccc(Cl)cc1,?,-23%
CN1CCN(c2cc(=O)n(C3CCCCC3)c(=O)[nH]2)CC1,-22%,i
COc1ccc(N(C)C(=O)C2CCN(S(=O)(=O)c3cccc4nsnc34)CC2)cc1,-15%,-29%
Cc1nc(CCNC(=O)CC2C(=O)NCCN2Cc2ccccc2)nc2c1CCC2 (stereo not given),-18%,-24%
O=C(Nc1cccc(C(F)(F)F)c1)c1cccnn1,4%,1%
Cc1ccc(-n2[nH]c(C)c(C=NCc3ccncc3)c2=O)cc1,7%,i
CCN(CC)CCNC(=O)Cn1ncc2c3ccccc3n(Cc3ccc(Cl)cc3)c2c1=O,-4%,-10%
COc1ccc2c(C)nc(Nc3nc(-c4ccccc4)cc(=O)[nH]3)nc2c1,4µM*,?
O=C(CNC(=O)c1ccco1)NCC(=O)OCc1ccccc1Br,5%,.
CCc1nn2c(=O)cc(COC(=O)CNC(=O)COc3ccc(C)cc3)nc2s1,-11%,1%
COc1ccc(CCN2C(=O)C(Oc3ccccc3C)C2c2ccc3c(c2)OCO3)cc1OC (stereo not given),-18%,.
O=C(NCCc1ccccc1)c1sc2ncccc2c1-n1cccc1,15%,-7%
CCC(=O)N1c2ccccc2CC1C(=O)NCCc1cc(OC)c(OC)c(OC)c1 (stereo not given),-10%,-8%
COc1cccc(CNC(=O)C2CCN(S(=O)(=O)c3c(C)noc3/C=C/c3cccs3)CC2)c1,-21%,-14%
Cc1cccc(C(=O)OCC(=O)NN2C(=O)NC3(CCC(C)CC3)C2=O)c1O (stereo not given),-11%,-15%
COc1ccc(-c2noc(-c3cccs3)n2)cc1OC,0%,-14%
Cc1c(Cl)ccc2c(C(O)CBr)cc(-c3ccccc3)nc12 (stereo not given),-14%,-5%
CCOc1cc2c(cc1OCC)C(c1ccc(O)c(OC)c1)NCC2 (stereo not given),-7%,8%
Cc1ccccc1Nc1c(-c2ccc(N3CCOCC3)cc2)nc2cccc(C)n12,-11%,-22%
CN1CCc2cc3c(cc2C1)OCO3,-2%,-3%
CCOc1ccc2nc(NC(=O)c3cc(=O)c4ccc(C)cc4o3)sc2c1,-5%,6%
COc1cccc(NC(=O)Cn2c(=O)oc3cc(S(=O)(=O)N4CCCCC4)ccc32)c1,-18%,-17%
CCn1nc(NC(=O)c2ccccn2)c2cc3cccc(C)c3nc21,-11%,-11%
COc1ccc(/C=N/NC(=O)CC(=O)N/N=C/c2ccc(OC)cc2)cc1,-24%,i

Next section:
canonical_smiles,VACV Venus inh,Vaccinia mCherry
CCn1c(SCC(=O)NC2CCCCC2)nc2c(c1=O)SC(C)C2 (stereo not given),-7%,19%
CC(C)NC(=O)CC1C(=O)N(Cc2ccccc2)C(C)c2nc3ccccc3n21 (stereo not given),-12%,i
Cc1ccc(C(=O)NCC(=O)OCC(=O)c2ccc3ccccc3c2)cc1,9%,0%
COc1ccc(C(C)=O)cc1CC(C(=O)c1ccc(C)c(C)c1)N(C)C (stereo not given),-10%,-13%
O=C(COC(=O)CCc1ccccc1)NCc1ccc2c(c1)OCO2,6%,-13%
COc1ccc(N(C(C)C(=O)NCc2ccco2)S(C)(=O)=O)cc1 (stereo not given),-3%,-1%
CSc1ccccc1C(=O)NCC1Cc2cc(F)cc(-c3cnccn3)c2O1 (stereo not given),-7%,-15%
COc1ccccc1-n1cc(-c2ccc(C)cc2)nc1S(=O)(=O)CC(=O)Nc1ccccc1C(F)(F)F,-9%,-5%
CC[C@]12c3[nH]c4ccc(Cl)cc4c3CCN1C(=O)[C@@H](CC(=O)NCCN1CCOCC1)C[C@@H]2C(=O)N1CCN(C(=O)c2ccco2)CC1,-6%,-24%
COc1cccc(NC2=NCC(=O)N2Cc2cccs2)c1,-18%,i
OCCN1CCN(CCO)C1=S,11%,-11%
CCOc1ccccc1NC(=O)N1CCCC1C(=O)Nc1nnc(CC)s1 (stereo not given),6%,-3%
CCOc1ccc2nc(NC(=O)C3CCCN(S(=O)(=O)c4cccc5nonc45)C3)sc2c1 (stereo not given),?,?
CCC(=O)N1CCN(c2nc(-c3ccc(Cl)cc3)cs2)CC1,?,?
COc1ccc(-c2nc3n(n2)C(c2ccc(OC)cc2)C(C(=O)Nc2cccnc2)=C(C)N3)cc1 (stereo not given),-7%,0%
O=C1[C@@H](c2ccccc2)CC[C@@H]2C=CC[C@H]3CCN1[C@@H]32,9%,16%
Cc1cc2nc3c(=O)[nH]c(=O)nc-3n(CC(O)C(O)C(O)CO)c2cc1C (stereo not given),39%[activator],-17%
CCCOc1ccc(CNC(=O)C2CCN(C(=O)N3CCOc4ccccc43)CC2)cc1,-26%,i
COc1ccc(N2CC(NC(=O)c3ccc(Br)o3)CC2=O)cc1 (stereo not given),-10%,-2%
CCn1c(SCC(=O)N2CCOCC2)nnc1-c1ccco1,3%,-7%
CC(C)Oc1cccc(NC(=O)C2(C)CCN2C(=O)C(C)C)c1 (stereo not given),-7%,3%
COc1cc(Cl)c(C)cc1NC(=O)CSc1ncc(S(=O)(=O)c2ccc(C(C)(C)C)cc2)c(=O)[nH]1,-4%[7.34 µM],-5%[7.34 µM]
COC(=O)c1c[nH]c2c1-c1cc(C(=O)OCc3ccccc3)n(S(=O)(=O)c3ccc(C)cc3)c1C(=O)C2=O,2.2µM*,?
COc1ccc(-n2c(SC(CN3CCCCC3)CN3CCCC3=O)nc3ccccc3c2=O)cc1 (stereo not given),-28%,-4%
COCCNC(=O)CN(C(=O)CCC(=O)Nc1ccccn1)c1ccc(C)c(C)c1,-18%,-16%
CCOc1ccc(NC(=O)CN2CCN(CC(=O)Nc3ccc(F)c(F)c3)CC2)cc1,-9%,.
Cc1ccc(S(=O)(=O)N2CCN(C(=O)c3cccs3)CC2)cc1,-14%,i
COC(=O)C1=C(c2cccc(OCc3ccccc3)c2)C[C@@H]2CC[C@H]1N2C(=O)NCCCOC(C)C,?,?
CCn1c(SCc2cccc(C(=O)O)c2)nnc1-c1ccccc1,-7%,.
COc1ccccc1N1CCN(Cc2cc(=O)c(OCC#N)co2)CC1,-2%,i
CC1CCCN(S(=O)(=O)c2cc(Cl)ccc2Cl)C1 (stereo not given),-3%,2%
C=CCn1c(-c2ccccc2[N+](=O)[O-])n[nH]c1=S,3%,-11%
Cc1cccc(CNc2ncnc3ccc(-c4cccc(C#N)c4)cc23)c1,?,?
O=C(COC(=O)c1cc(Br)ccc1Cl)NC1CC1,-9%,i
Cc1cc(C)n(-c2ccc(C(=O)Nc3cccnc3)cc2)n1,-21%,-18%
Cc1ccc2[nH]c(C(=O)O)c(NC(=O)[C@@H]3C[C@@H]3c3ccccc3)c2c1,-5%,-24%

Compound profiles, as listed above.
`CCOc1ccc(NC(=O)CN2CCN(CC(=O)Nc3ccc(F)c(F)c3)CC2)cc1` reads VACV Venus inh: -9%; Vaccinia mCherry: .
`Cc1ccc(S(=O)(=O)N2CCN(C(=O)c3cccs3)CC2)cc1` reads VACV Venus inh: -14%; Vaccinia mCherry: i

Later entries
canonical_smiles,VACV Venus inh,Vaccinia mCherry
N#CCCN(C(=O)Nc1ccc(Cl)c(Cl)c1)c1ccccc1,-5%,1%
COC(=O)c1sccc1NC(=O)Nc1cc(OC)ccc1OC,-14%,i
Cc1cc(SCC(=O)c2ccc(Br)cc2)cc(C)[o+]1,-11%,-16%
CCOc1cccc(C2/C(=C(/O)c3ccc4c(c3)CC(C)O4)C(=O)C(=O)N2Cc2ccncc2)c1 (stereo not given),5%,-21%
O=C(c1cc(Cl)ccc1F)N1CCCC(Nc2ccc3c(c2)OCCO3)C1 (stereo not given),-11%,-17%
Cc1ccc(S(=O)(=O)N2CCC(=O)N([C@H](COCc3cccc(Cl)c3)C(C)C)CC2)cc1,-1%,-4%
COc1cc(C)c(C(C)C)cc1S(=O)(=O)NCCCn1ccnc1,-8%,-16%
CCc1ccccc1N(CC(=O)N1CCCCCC1)S(C)(=O)=O,-3%,i
O=C(O)CNC(=O)/C(=C/c1cccc([N+](=O)[O-])c1)NC(=O)c1ccco1,-4%,-14%
CCc1ccc(S(=O)(=O)Nc2cccc(-c3ccc4nnc(C)n4n3)c2)s1,-12%,-15%
COC(=O)c1ccc(C(=O)OC)c(NC(=O)CSc2nnc(-c3ccccc3Cl)o2)c1,-4%,.
CCOc1cc(C2NC(=O)c3c(sc4c3CCN(C)C4)N2)ccc1OC(=O)c1ccccc1Cl (stereo not given),4%,-14%
Cc1ccc(CNC(=O)C2CCN(c3nc4ccc(C)cc4[nH]3)CC2)cc1,-6%,i
Cc1ccc2c(c1)C(c1ccc(F)cc1)N(C(=O)C(C)C)CC(=O)N2 (stereo not given),-12%,-25%
COc1cccc(OCc2nc3ccccc3n2Cc2ccccc2C)c1,-12%,-9%
